# VACV Venus inh = qHTS for Stage-Specific Inhibitors of Vaccinia Orthopoxvirus: Venus Reporter Primary qHTS. 330,000 tested, 0.46% active. AID 720580, 2013. Potency, µM (series often up to 36.5 µM), inactives show at the top dose activity change, negative = inhibition, hits mostly inhibitors. Vaccinia virus Venus reporter expression, fluorescence; active means well fitted inhibition curve with a large enough effect; inconclusive means small, poorly fitted or top-dose-only effect; inactive means no such curve, though single readings can be large or run the other way; tested in A549 cells; further: nearly all actives have a fitted effect of over 30% in size; inactives centre near -10
# Vaccinia mCherry = qHTS for Stage-Specific Inhibitors of Vaccinia Orthopoxvirus: mCherry Reporter Primary qHTS | Vaccinia virus mCherry reporter infection, fluorescence; about a quarter of the inactives have no number | Potency, µM (titrated, usually from 36.5 µM), for inactives: top-dose activity change, negative = inhibition, usual class: inhibitors | 310,000 tested, 0.63% active; active = well fitted inhibition curve with a large enough effect; inconclusive = small, poorly fitted or top-dose-only effect; inactive = no such curve, though single readings can be large or run the other way; tested in A549 cells; further: nearly all actives have a fitted effect of over 35% in size; inactives centre near -10
# The depositor's hits bear a star; i = inactive; ? = inconclusive; nt = no result given; [ ] = remark or other dose. On the % scale 0 is the no-effect control and ±100 the full control effect; potency means the concentration at half of the fitted maximal effect. Random draw from the library, and some 0.82% of all compounds hit somewhere here.
SMILES,VACV Venus inh,Vaccinia mCherry
Cc1ccccc1C(=O)NNC(=O)CSc1nnc(C)n1-c1ccccc1,-11%,-6%
Cc1ccc(F)cc1NC(=O)COC(=O)C1CC2CCCC(C1)C2=O (configuration not stated),-9%,i
Cc1ccc(N2C(=O)SC(N(CC(=O)O)c3cccc(C)c3)C2=O)cc1 (configuration not stated),-12%,-14%
Cn1c(/C(C#N)=C/c2ccc(C(F)(F)F)cc2)nc2ccccc21,-10%,3%
Cn1c(=O)c2[nH]c(N/N=C(/C#N)C(N)=O)nc2n(C)c1=O,-15%[7.34 µM],-9%[7.34 µM]
CCCC(=O)Nc1cnc(NC(=O)c2cccc(F)c2)cc1C,-18%,i
N#CC1(NC(=O)COC(=O)Cc2n[nH]c(=O)c3ccccc23)CCCCC1,10%,-14%
Cc1cc(C(=O)CSc2nc3ccc(Cl)cc3[nH]2)c(C)n1CC1CCCO1 (configuration not stated),-30%,?
C[C@@H](N)C(=O)NC[C@H]1CC[C@H](C(=O)N[C@@H](Cc2ccccc2)C(=O)O)CC1,-10%,-17%
C[C@@H](c1ccccc1)N1C[C@H](COCc2ccccc2)Oc2cc(N3CC[C@@H](O)C3)ccc2S1(=O)=O,-1%,4%
C[C@@H]1CN([C@@H](C)CO)C(=O)CCCn2nncc2CO[C@H]1CN(C)Cc1cccc(C(F)(F)F)c1,-9%,-15%
O=C(O)C12CC3CC(C1)CC(n1ncc(NCc4ccccc4)c(Cl)c1=O)(C3)C2,-3%,i
O=C(Nc1ccc(Cl)cc1)/C(=C1\CCCN1)[N+](=O)[O-],-2%,-4%
CCOC(=O)C1=C(CN2CCN(c3cc(C)ccc3C)CC2)NC(=O)NC1c1ccccc1 (configuration not stated),-14%,-22%
Cc1ccc(-n2c(SCC(=O)N3CCCc4ccccc43)nc3c([nH]c4ccccc43)c2=O)cc1,-9%,-25%
CCn1c(/C=C/c2ccccc2)nc2ccccc21,-23%,-7%
Cc1ccc(-c2cc(-c3ccc4c(c3)NC(=O)CO4)nc3c2COc2ccc(C)cc2-3)cc1,?,?
O=C1CC2(CCCC2)CC(=O)N1c1ccccc1,2%,i
CCN(CC)c1ccc(/C=C(/C#N)C(=O)NCc2ccccc2)o1,-1%,-22%
Cc1ccccc1NC(=O)CSc1nnc(-c2cccc(Cl)c2)o1,-15%,-11%
COC(=O)C(Cc1ccccc1)N1CCS(=O)(=O)CC1 (configuration not stated),-17%,-5%
Cc1cc(N)ccc1S(C)(=O)=O,4%,-11%
CCOC(=O)c1c(C)[nH]c(C(=O)OCC(=O)Nc2sccc2C(N)=O)c1C,?,-16%
COc1ccc(/C=C\c2onc(C)c2S(=O)(=O)N2CCC(C(=O)Nc3ccc(Cl)cc3)CC2)cc1,-13%,-4%
Cc1ccccc1-n1nc2c(c1NC(=O)c1ccc(Br)o1)CSC2,-15%,-15%

# (listing goes on)
SMILES,VACV Venus inh,Vaccinia mCherry
COc1cc2c(cc1OC)CN(C(=O)c1cccc(S(=O)(=O)N3CCc4ccccc43)c1)CC2,-2%,-29%
Cc1ccc(-c2cc(C(=O)NC3CCCC3)no2)cc1,-7%,-8%
O=C(CCC(=O)N(CC(=O)NC1CCCC1)C1CCCC1)Nc1ccccn1,4%,nt
CCCC(c1nnnn1CC1CCCO1)N1CCN(c2ccccc2)CC1 (configuration not stated),-8%,i
CCc1c(CN2CCN(c3ccc(F)cc3)CC2)csc1C,-2%,-5%
Cc1nnc(NCC=Cc2ccccc2)s1,9%,38%[activator]
COc1cc(C(=O)NC2CCN(C)CC2)ccc1Nc1ncc2c(n1)N(C1CCC(O)CC1)CCC(=O)N2C (configuration not stated),-8%,i
C(=N\n1cnnc1)/c1cn(Cc2ccccc2)c2ccccc12,-22%,-11%
Cc1ccc(-c2nnc(Nc3cccc(O)c3)c3ccccc23)cc1S(=O)(=O)N1CCN(C)CC1,-6%,-23%
COc1ccc(-c2c(C)oc3c(CN4CCOCC4)c(O)ccc3c2=O)cc1,-2%,-7%
C=CC[N+](C)(C)c1ccc(CCC(=O)CCc2ccc([N+](C)(C)CC=C)cc2)cc1,-16%,i
O=C(O)c1ccc(CNC(=O)C23CC4CC(CC(C4)C2)C3)cc1,-6%,i
COc1ccc(C(=O)NN/C(C)=C/C(=O)c2ccccc2)cc1,-5%,?
O=C(NCc1cccs1)C1CCC(=O)N1C1CCCCC1 (configuration not stated),-4%,-6%
Cc1nnc(NC(=O)CC(CN(C)S(=O)(=O)c2ccccc2)c2ccccc2)s1 (configuration not stated),-16%,i
C=CCN=C1SC(C)(C)C(=O)N1S(=O)(=O)c1ccc(C)cc1,-9%,-2%
COCCn1c(SCC(=O)Nc2cccnc2Cl)nc2ccccc2c1=O,-6%,i
Cc1cc(CN(C)C)c(O)c(C2(C)CCCCC2)c1,-1%,nt
CC1=C(C(=O)Nc2ccccc2)C(c2ccncc2)n2nc(SCc3ccccc3)nc2N1 (configuration not stated),9%,2%
CC(C)CNC(=O)N[C@@H](CC(C)C)C(=O)O,-3%,-9%
CC(C)(Oc1ccc(Br)cc1)C(=O)Nc1cc(-c2nc3ccccc3[nH]2)ccc1Cl,-21%,-23%
Cc1cccc(N2C(=O)C3C4C=CC(C4)C3C2=O)c1 (configuration not stated),-11%,i
Cc1ccc(NC(=O)CSC2=C(C#N)C(c3ccco3)CC(=O)N2)cc1 (configuration not stated),-21%,nt
CCc1ccc(-n2c(=O)c3ccccc3n(Cc3ccccc3C#N)c2=O)cc1,2%,1%
COc1cccc(C(C)(O)c2nc(-c3ccc(OC)nc3)cs2)c1 (configuration not stated),-13%,i

# Following part.
SMILES,VACV Venus inh,Vaccinia mCherry
CCCCCCSC1=C(C#N)C(c2ccccc2)CC(=O)N1 (configuration not stated),-17%,-10%
COc1ccc(N2CCN(C(=O)CSc3nnc(-c4cccnc4)n3-c3ccccc3)CC2)cc1,-6%,i
Cc1ccc(S(=O)(=O)N2CCC(NC(=O)C3CCCCC3)CC2)cc1,-7%,-18%
COc1ncnc2c1NC(=O)CS2,0%,nt
COc1cc(C2C(C#N)=C(C)NC3=C2C(=O)CC(C)(C)C3)ccc1OCCO (configuration not stated),-4%,nt
Cc1cc(C)c(NC(=O)Cn2c(=O)n(CC(=O)NCCc3ccccc3)c(=O)c3ccccc32)c(C)c1,-11%,-17%
COc1cc(-c2nnc(SCC(=O)N(C)C3CCS(=O)(=O)C3)o2)cc(OC)c1OC (configuration not stated),-2%,-13%
CCOC(=O)C1CCN(c2nc3ccccc3nc2C(C#N)C(=O)OC(C)C)CC1 (configuration not stated),-3%,-9%
CC(=O)Nc1sc2c(c1CN1CCN(c3ccc(F)cc3)CC1)CCCC2,-17%,-27%
COc1ccc(CCNC(=O)c2ccco2)cc1OC,-5%,-2%
O=C(NC1CCS(=O)(=O)C1)c1cccc(S(=O)(=O)N2CCCC2)c1 (configuration not stated),-9%,i
O=C1NC(=O)C(c2ccccc2)(c2ccccn2)N1 (configuration not stated),4%,-15%
Cc1cc(=O)[nH]c(SCc2nnnn2-c2ccc(Cl)cc2)n1,-12%,-4%
CN(C)c1ccc(/C=C2\C=Cc3ccccc32)cc1[N+](=O)[O-],-7%,i
Cc1ccc(CN(CC(=O)NCc2ccc3c(c2)OCO3)C(=O)c2csnn2)cc1,-21%,-13%
O=C(Nc1ccccc1)c1cc(C2COCCN2C(=O)CCCc2ccccc2)on1 (configuration not stated),-3%,i
CCOc1ccc(NC(=O)Cn2nnc(-c3nc(-c4ccncc4)no3)c2N)cc1,-7%,-3%
CC(OC(=O)[C@H](C)NC(=O)c1ccccc1Cl)C(=O)NCc1ccc2c(c1)OCO2 (some centres not stated),-10%,i
Cn1nc(C(=O)OCC(=O)Nc2sccc2C(N)=O)c2ccccc2c1=O,1%,i
NC(=O)c1cc([N+](=O)[O-])c(Cl)cc1NCc1ccccn1,-15%,i
CCC(Sc1nncn1C)C(=O)Nc1nnc(-c2ccccc2Cl)s1 (configuration not stated),-4%,4%
C=CCOc1c(OC)cc(Cl)cc1C1NC(=O)NC(C)=C1C(C)=O (configuration not stated),-9%,-10%
COc1ccc(C2N(c3ccccc3)C(=O)C2(F)F)cc1OC (configuration not stated),-16%,-18%
CCOCC(=O)Nc1cc([N+](=O)[O-])ccc1OC,-4%,-9%
C[C@@H]1CN([C@H](C)CO)C(=O)CCCn2nncc2CO[C@H]1CN(C)S(=O)(=O)c1ccc(F)cc1,-23%,-14%

# Carrying on:
SMILES,VACV Venus inh,Vaccinia mCherry
CC(C)(NC(=O)NC(CO)c1ccccc1)c1cccc(C(C)(C)NC(=O)NC(CO)c2ccccc2)c1 (configuration not stated),-7%,i
O=C(Nc1cccc(S(=O)(=O)N2CCCCC2)c1)C1CCN(C(=O)c2ccc(Cl)cc2)CC1,?,-26%
O=C(CCN1C(=O)C2CC=CCC2C1=O)Nc1ccccc1Cl (configuration not stated),-18%,-2%
COC(=O)C[C@@H]1OC[C@H](CO)N1S(=O)(=O)c1ccc(C)cc1,-9%,-11%
CC1(C(=O)Nc2ccc3c(c2)OCCO3)CSCC(=O)N1C1CC1 (configuration not stated),6%,-8%
CN(C(=O)COC(=O)c1c[nH]c(=O)[nH]c1=O)C1CCCCC1,-5%,i
Cc1cc2c(cc1S(=O)(=O)N(CCO)Cc1ccccc1)OCC(=O)N2,-7%,i
CCCSc1nc2cc(C)c(C)cc2n1CC(O)CO (configuration not stated),-8%,-9%
CCc1cccc(C)c1NC(=O)C(CC)Sc1nc2ccncc2[nH]1 (configuration not stated),-1%,-1%
COc1cccc(C(=O)Nc2ccc3c(c2)n(C)c(=O)n3C)c1,-1%,i
O=c1oc2ccccc2c2c1ncn2CCN1CCOCC1,-6%,-7%
O=c1[nH]c(=O)n(Cc2ccccc2)c2nc(-c3ccc(C(F)(F)F)cc3)n(CCO)c12,-9%,i
Cc1ccc(C(=O)Nc2ccccc2C(=O)OCc2cc(=O)n3nc(C(C)C)sc3n2)cc1,-2%,-10%
CCCCOc1ccc(C2C(C(=O)Nc3ccccc3OC)=C(C)Nc3nnnn32)cc1OC (configuration not stated),-7%,i
N/C(=N\OC(=O)CCCCCN1C(=O)c2ccccc2C1=O)c1ccccc1,1%,0%
COc1ccc(/C=N/NC(=S)NC2CCS(=O)(=O)C2)cc1 (configuration not stated),-3%,-16%
Nc1[nH]c(=O)nc2nnsc12,3%,-12%
COc1cc(CNc2ccccc2SC)ccc1O,-11%,-21%
CCOc1ccc(CCNC(=O)c2ccc(CS(=O)(=O)Cc3ccccc3Cl)o2)cc1OCC,-9%,-18%
N#Cc1cccc(NC(=O)Cn2cnc(S(=O)(=O)N3CCc4ccccc43)c2)c1,13%[7.34 µM],10%[7.34 µM]
O=c1c2c3c(sc2nc(N2CCNCC2)n1CCc1ccccc1)CCCCC3,-4%,-12%
CCOC(=O)c1ccc(N2C(=O)c3n[nH]c(C)c3C2c2ccc(O)c(OC)c2)cc1 (configuration not stated),-6%,-16%
O=C(c1c(F)cccc1F)N1CCC(O)(c2cccnc2)CC1,-11%,-6%
CC(=O)NNC(=S)NC(=O)c1ccccc1,-12%,-11%
COc1cccc(NC(=O)Cn2c(=O)n(-c3ccccc3)c(=O)c3ccc(C(=O)NCc4ccc5c(c4)OCO5)cc32)c1,?,-26%

# The results go on:
SMILES,VACV Venus inh,Vaccinia mCherry
Cc1ccc(N2C(=O)c3ccccc3C2=O)cc1Cl,-27%,nt
O=C(COC(=O)COc1cccc(Br)c1)Nc1c(Cl)cccc1Cl,-14%,i
Cc1sc(NC(=O)c2sc3nc4c(C)cccc4cc3c2N)c(C#N)c1C,14%,2%
Cc1ccc(C(=O)COC(=O)CNC(=O)c2ccc(N3C(=O)c4ccccc4C3=O)cc2)cc1C,1%,i
COc1ccc(CCNC(=O)CSc2nnc3ccccn23)cc1,-13%,-2%
C[C@H]1COC(=O)[C@@H](CC(=O)OC(C)(C)C)C/C=C\C[C@@H](CC(=O)N[C@H](CO)Cc2ccccc2)C(=O)N1,-10%,-10%
O=C(NCCN1CCOCC1)Nc1cccc(Cl)c1,5%,-3%

# Compounds listed so far containing a cyano group:
SMILES,VACV Venus inh,Vaccinia mCherry
Cn1c(/C(C#N)=C/c2ccc(C(F)(F)F)cc2)nc2ccccc21,-10%,3%
Cn1c(=O)c2[nH]c(N/N=C(/C#N)C(N)=O)nc2n(C)c1=O,-15%[7.34 µM],-9%[7.34 µM]
N#CC1(NC(=O)COC(=O)Cc2n[nH]c(=O)c3ccccc23)CCCCC1,10%,-14%
CCN(CC)c1ccc(/C=C(/C#N)C(=O)NCc2ccccc2)o1,-1%,-22%
Cc1ccc(NC(=O)CSC2=C(C#N)C(c3ccco3)CC(=O)N2)cc1 (configuration not stated),-21%,nt
CCc1ccc(-n2c(=O)c3ccccc3n(Cc3ccccc3C#N)c2=O)cc1,2%,1%
CCCCCCSC1=C(C#N)C(c2ccccc2)CC(=O)N1 (configuration not stated),-17%,-10%
COc1cc(C2C(C#N)=C(C)NC3=C2C(=O)CC(C)(C)C3)ccc1OCCO (configuration not stated),-4%,nt
CCOC(=O)C1CCN(c2nc3ccccc3nc2C(C#N)C(=O)OC(C)C)CC1 (configuration not stated),-3%,-9%
N#Cc1cccc(NC(=O)Cn2cnc(S(=O)(=O)N3CCc4ccccc43)c2)c1,13%[7.34 µM],10%[7.34 µM]
Cc1sc(NC(=O)c2sc3nc4c(C)cccc4cc3c2N)c(C#N)c1C,14%,2%

# Screening results from PubChem BioAssay.
